Marburg entry inh = Marburg virus entry inhibition. Marburg virus pseudotyped entry inhibition, cell reporter; control for the full effect not named in the record; about a third of the inactives were read at about 46 µM. Potency, µM (doses to about 37.8 µM), for inactives: at the highest dose activity change, negative = inhibition, most hits filed as inhibitors. 300,000 compounds, 1.8% hits. AID 540276; active = well fitted inhibition curve with a large enough effect; inconclusive = small, poorly fitted or top-dose-only effect, or effect the other way; inactive = flat fitted curve, though single readings scatter; tested in HEK293 cells; about a fifth of its hits are not listed in these tables; note: % is set by controls: 0 for no effect and ±100 for the full control effect; luciferase read-out
Lassa entry inh = Lassa virus entry inhibition. Potency, µM (highest dose often 37.9 µM), for the others: top-dose activity change, negative = inhibition, actives largely listed as inhibitors. 300,000 compounds, 1.2% hits. Lassa virus pseudotype entry inhibition, cell reporter; control for the full effect not named in the record; active means well fitted inhibition curve with a large enough effect; inconclusive means small, poorly fitted or top-dose-only effect, or effect the other way; inactive means flat fitted curve, though single readings scatter; tested in HEK293 cells; note: % is set by controls: 0 for no effect and ±100 for the full control effect; nearly all actives have a fitted effect of over 50% in size; luciferase read-out
RE007 growth inh = less growth of the S. pombe RE007 Vpr strain | S. pombe RE007 Vpr strain, BacTiter-Glo ATP luminescence, 24 h; control for the full effect not named in the record | Potency, µM (doses to about 92.2 µM), for inactives: at the top dose activity change, negative = less growth | 360,000 compounds, 0.21% hits | AID 651644; active = well fitted falling curve with a large enough effect; inconclusive = small, poorly fitted or top-dose-only effect; inactive = no such curve, though single readings can be large or run the other way;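 note: % is set by controls: 0 for no effect and ±100 for the full control effect; nearly all actives have a fitted effect of over 50% in size; the assay follows cell death caused by Vpr and the record does not say whether a fall means rescue or toxicity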
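Fission yeast strain RE007, carrying one chromosomally integrated HIV-1 vpr copy, was seeded at OD 0.01 in PMG+AL medium with 23 nL pinned compound. After 24 h at 30 °C and 99% humidity, viability was read by BacTiter-Glo luminescence.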
Cruzain Triton = blocks cruzain activity in presence of Triton detergent. P25779. Potency, µM, for the others: max response, negative = inhibition, actives largely listed as inhibitors. 200,000 compounds, 0.43% hits. AID 1478. purified cruzain, Z-FR-AMC fluorescence, 0.01% Triton;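 note: plate controls were neutral wells for no effect and buffer without enzyme for full effect; nearly all actives have a fitted effect of over 40% in size; top concentration of the series not given in the record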
Target sequence (P25779 123-467 limits assumed): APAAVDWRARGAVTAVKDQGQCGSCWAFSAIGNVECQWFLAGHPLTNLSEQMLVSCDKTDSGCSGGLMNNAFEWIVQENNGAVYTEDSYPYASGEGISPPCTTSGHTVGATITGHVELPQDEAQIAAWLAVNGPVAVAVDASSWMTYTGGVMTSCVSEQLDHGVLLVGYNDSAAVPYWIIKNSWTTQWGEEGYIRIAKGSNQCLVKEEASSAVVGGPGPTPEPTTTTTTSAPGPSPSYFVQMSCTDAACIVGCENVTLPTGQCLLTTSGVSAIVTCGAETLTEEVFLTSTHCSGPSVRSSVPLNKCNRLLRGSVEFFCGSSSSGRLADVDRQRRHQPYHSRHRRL
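Sodium acetate buffer (100 mM, pH 5.5) containing 5 mM DTT and 0.01% Triton X-100 hosted 1.5 nM cruzain and test compound for 15 min at room temperature. Cleavage of 2 uM Z-FR-AMC was then tracked by fluorescence.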
SARS PLP yeast = inhibitors of SARS-CoV papain-like protease in yeast; Potency, µM (doses to about 32.9 µM), inactives show top-dose activity, positive = growth rescue; 330,000 compounds, 0.19% hits; S. cerevisiae expressing SARS-CoV PLpro, growth rescue; control for the full effect not named in the record; active means well fitted rising curve with a large enough effect; inconclusive means small, poorly fitted or top-dose-only effect; inactive means no such curve, though single readings can be large or run the other way; note: 0% is about no effect; nearly all actives have a fitted effect of over 55% in size; growth read by luminescence after 48 h
Cruzain noTriton = cruzain (T. cruzi) inhibition without detergent | purified cruzain, Z-FR-AMC fluorescence, no detergent | Potency, µM, without a hit: max response, negative = inhibition, actives largely listed as inhibitors | 200,000 compounds, 2.3% hits | AID 1476;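 note: plate controls were enzyme without inhibitor for no effect and buffer without enzyme for full effect; nearly all actives have a fitted effect of over 40% in size; top concentration of the series not given in the record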
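Detergent-free condition (0.00005% Triton X-100) in acetate buffer pH 5.5 with DTT. 1.5 nM enzyme and compound were pre-mixed 15 min, then 2 uM Z-FR-AMC substrate added; reaction progress from fluorescence change between first and third reads (60 s).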
2A StopGo = FMDV 2A StopGo reporter, luciferase signal. human cells with a luciferase reporter of 2A StopGo recoding; control for the full effect not named in the record. Potency, µM (top dose mostly 57.9 µM), inactives show at the highest dose signal change, negative = less light. 410,000 compounds, 1.2% hits. AID 1159524; active = well fitted falling curve with a large enough effect; inconclusive = small, poorly fitted or top-dose-only effect; inactive = no such curve, though single readings can be large or run the other way; tested in HEK293T cells; note: % is set by controls: 0 for no effect and ±100 for the full control effect; nearly all actives have a fitted effect of over 45% in size; luciferase light after 4 h
NS1 function inh = inhibitors of influenza NS1 protein function. S. cerevisiae slowed by influenza A NS1, growth recovery by OD600. Potency, µM (series often up to 46.1 µM), without a hit: at the top dose activity, positive = more growth. 270,000 compounds, 0.4% hits. AID 2326; active means well fitted rising curve with a large enough effect; inconclusive means small, poorly fitted or top-dose-only effect; inactive means no such curve, though single readings can be large or run the other way; note: nearly all actives have a fitted effect of over 50% in size
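Read-out: OD600 growth recovery of NS1-expressing budding yeast. Cells grown overnight at 30C in -URA glucose medium, washed, resuspended and diluted 1:100 in 2% galactose assay medium, pH 6.0. Same strain lacking NS1 served as positive control.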
Numbers without * were called inactive; ? = inconclusive; nt = not tested or not shown; & = joins results of further samples; [ ] = dose if it differs, or a comment. Unless noted, calls come from the whole dose curve; as a rule, active = well fitted curve in the direction sought with a large enough effect; inconclusive = small, poorly fitted or top-dose-only effect, or another doubt; inactive = no such curve, though single readings can be large; an effect the other way counts as inactive or inconclusive. Potency is the fitted concentration of half-maximal effect.

SMILES	Marburg entry inh	Lassa entry inh	RE007 growth inh	Cruzain Triton	SARS PLP yeast	Cruzain noTriton	2A StopGo	NS1 function inh
O=C(CSc1nc2ccccc2o1)N1CCN(c2ccccc2)CC1	13%	0%	3%	1.7%	nt	-5%	2%	6%
CCOC(=O)CSc1nc2cc(S(=O)(=O)N3CCOCC3)ccc2n1CC	4%[46.1 µM]	-6%	-3%	nt	-1%	nt	-26%	nt
COc1cccc(-c2nnc(SCC(=O)Nc3ccc(OC)c(OC)c3)n2N)c1	1%	9%	?	1.9%	2%	0%	-4%	-1%
CCc1cc2c(=O)c(Oc3ccccc3)c(C)oc2cc1O	-7%	21%	-9%	2.3%	-3%	0%	-29%	-4%
CC1(C)CC(=O)C=C(NCCc2ccc(S(N)(=O)=O)cc2)C1	5%	4%	25%	-1.1%	-1%	8%	3%	2%
Cc1cc(N2CCCC2)ccc1NC(=O)COc1ccc(Cl)cc1	?	1%	-16%	nt	-3%	nt	-25%	nt
COc1ccc(C(C)=O)c2c1OCCO2	7%	8%	-5%	-5.6%	6%	-10%	-24%	1%
CC1(C)SC2c3ccccc3C(=O)N2[C@@H]1C(=O)NC1CC1 (stereo not given in full)	nt	nt	1%	nt	-5%	nt	-8%	1%
O=C(COc1ccccc1)NNC(=S)NC(=O)c1ccc(Cl)cc1Cl	19%	-8%	45%	-1.3%	-50%	-18%	4%	-43%
Cc1cc(C)cc(NC(=O)N2CCC(NC(=O)c3ccco3)CC2)c1	?	29%[46.1 µM]	26%	nt	-1%	nt	15%	5%
COc1cccc(C(=O)Nc2ccc(C)cc2)c1	?	?	-20%	4.6%	-4%	-6%	-27%	-15%
CC1=NNC(=O)C1CC(=O)N/N=C(/C)c1cccc([N+](=O)[O-])c1 (stereo not given)	13%[46.1 µM]	?	7%	nt	7%	nt	-9%	nt
FC(F)(F)c1ccc(N2CCOCC2)c(Nc2nc3ccccc3n3cnnc23)c1	4.1µM*	?	-3%	-16%	1%	?	0%	-58%
Cc1ccc(CSCc2ccc(C(=O)NCCc3ccc(Cl)cc3)o2)cc1	nt	0%[46.1 µM]	nt	-1.1%	nt	-6%	?	nt
CCCOc1ccc(/C(O)=C2/C(=O)C(=O)N(CCN(CC)CC)C2c2ccncc2)cc1 (stereo not given)	nt	nt	nt	-1.2%	-5%	0%	nt	-1%
O=C(CN1C(=O)COc2ccc(S(=O)(=O)N3CCCCC3)cc21)NCc1ccc(Cl)cc1	?	-29%&-1%[46.1 µM]	-1%	-3.6%	nt	3%	2%&5%	10%
CCC(C)c1ccccc1NC(=O)C(C)N(C)Cc1cccc(OC)c1 (stereo not given)	?	8%[46.1 µM]	9%	nt	-2%	nt	?	nt
O=c1[nH]c(=S)n(-c2ccc(Cl)cc2)c(O)c1/C=N/N1CCOCC1	-12%[46.1 µM]	?	-24%	nt	2%	nt	-5%	-1%
COc1ccc(C2C(C#N)=C(N)OC3=C2C(=O)CC(C)(C)C3)c(OC)c1OC (stereo not given)	-11%&0%	15%	6%	2.2%	4%	4%	-21%	-8%
O=C(CCCCCn1c(=O)c2sccc2n(Cc2ccc(Cl)cc2)c1=O)NCc1ccc2c(c1)OCO2	26%[46.1 µM]	-10%[46.1 µM]	nt	-2.0%	nt	10%	-2%	nt
CCOC(=O)C1(CCOc2ccccc2)CCN(Cc2ccc(NC(C)=O)cc2)CC1	-22%[46.1 µM]	7%	-15%	nt	1%	nt	?	3%
COc1ccc(Cl)cc1Nc1nc(N)c2ccccc2n1	?	-24%[46.1 µM]	?	nt	1%	nt	9%	-67%
COc1ccc(C(c2nnnn2CCc2ccccc2)N2CCN(C3CCCC3)CC2)cc1 (stereo not given)	?	?	-8%	1.8%	3%	-9%	9%	-5%
O=Cc1ccc(N2CCCCC2)cc1	2%[14.2 µM]	7%	-3%	nt	-4%	nt	13%	nt
Cc1nnc(SCc2cc(=O)[nH]c(N3CCCCC3)n2)s1	-2%	?	-4%	nt	nt	nt	-9%	16%
COCCSc1ccccc1C(=O)N1CCCC(C)C1 (stereo not given)	nt	nt	5%	nt	1%	nt	2%	-2%
CCOc1ccc(NC(=O)CC2C(=O)N(c3ccc(C)cc3)C(=O)N2CCC2=CCCCC2)cc1 (stereo not given)	-4%[46.1 µM]	20%[46.1 µM]	nt	-5.5%	nt	4%	-13%	nt
Cc1cccc(N/C(N)=N/c2nc3c(c(=O)[nH]2)CCCC3)c1	-45%	4%	-1%	-4.4%	2%	-22%	4%	-20%
N#Cc1ccccc1CSc1nc2ncc(Br)cc2[nH]1	6%	nt	4%	3.4%	5%	?	-2%&17%	-3%
CNc1cc(C)nc(N2CCOCC2)n1	nt	nt	-5%	nt	1%	nt	-17%	2%
COc1cc(/C=C/C(=O)OCC(=O)N2CCOCC2)ccc1OCC#N	9%[46.1 µM]	nt	0%	nt	-1%	nt	0%	nt
CCn1c(C)c(C)c2cc(C(=O)NCCc3cc(OC)ccc3OC)ccc21	nt	-4%[46.1 µM]	nt	-3.2%	nt	3%	-6%	nt
O=C(NCCc1ccc(Cl)cc1)C1CCC(CNc2nc(=S)[nH]c3ccccc23)CC1 (stereo not given)	?	-15%	-16%	nt	-1%	nt	-10%	2%
Cc1ccc(-c2noc(COc3ccc4c(c3)OCO4)n2)cc1	-3%	-7%	-5%	-0.7%	13µM*	0%	3%	-1%
CN(C)C1=C(Cl)C(=O)N(c2ccc(Cl)c(Cl)c2)C1=O	nt	nt	1%	nt	-1%	nt	2%	-8%
CCc1nc2ccc(C(=O)NC3CCC(C)CC3)cc2nc1CC (stereo not given)	nt	nt	5%	nt	2%	nt	13%	?
CC1=C(C)CC(C(=O)Nc2nc(-c3ccc(F)cc3)c(C)s2)C(C(=O)O)C1 (stereo not given)	16%	-2%	14%	-10%	-8%	?	-9%	15%
CCn1c2ccccc2c2cc(NC(=O)c3ccc([N+](=O)[O-])cc3)ccc21	16%	-4%	-4%	-2.2%	-2%	?	-23%	16%
N#Cc1c(-c2ccco2)ccn(Cc2cccc(F)c2)c1=O	7%	10%	10%	nt	0%	nt	1%	nt
CN1CCN(Cc2nnc3n2-c2ccc(Cl)cc2C(c2ccccc2)=NC3)CC1	-1%	?	-2%	-2.3%	-20%	1%	-14%	1%
O=C(CSc1ccc(-c2cccs2)nn1)Nc1ccccc1	?	1%	-2%	-6.7%	1%	-1%	-12%&-18%	nt
CN(N=Nc1nc[nH]c1C(=O)NN)C1CCCCC1	?	16%	8%	nt	nt	nt	-13%	nt
Cc1cc(C(=O)C(=O)O)c(C)n1-c1ccc(Cl)c(Cl)c1	?	1%	-5%	nt	1%	nt	-26%	-1%
Cn1c(N2CCN(C(=O)NCc3ccccc3)CC2)nc2ccccc21	-20%	9%	8%	8.6%	2%	3%	-2%	-3%
CCOC(=O)C1(S(=O)(=O)c2ccc(Cl)cc2)CCN(Cc2ccc(Cl)cc2)CC1	?	?	-13%	-4.9%	-7%	3%	-25%	-53%
Cc1cc(C(F)(F)F)nn1CC(=O)N1CCOCC1	-18%	1%	10%	5.4%	2%	-5%	nt	9%
C/C(=N\NC(=O)c1cccc(N/N=C(\C)c2cc(O)ccc2O)c1)c1cc(O)ccc1O	?	?	21%	nt	0%	nt	0%	10%
CC(C)c1ccc(C(=O)Nc2cc(-c3ccccc3F)nn2-c2ccccc2)cc1	nt	13%[46.1 µM]	nt	1.0%	nt	?	-14%	nt
Cc1ccc(C(CNS(=O)(=O)c2ccc(C)cc2)N2CCN(C)CC2)cc1 (stereo not given)	?	-23%	-17%	nt	-1%	nt	-16%	nt
O=C(NS(=O)(=O)c1ccccc1Cl)c1ccc[nH]1	31%	-3%	nt	-2.6%	20%	3%	nt	7%
CC1CN(C)C(C)(C)CC1(O)c1ccccc1 (stereo not given)	17%	13%	10%	14%	-10%	-5%	nt	-4%
O=c1[nH]c2ccccc2cc1CN(Cc1cccnc1)S(=O)(=O)c1ccc(Cl)cc1	?	?	-1%	nt	-1%	nt	-27%	-4%
CCOC(=O)NN1C(=O)c2ccccc2NC12CCCC2	-22%[46.1 µM]	7%	-4%	nt	9%	nt	10%	nt
Cc1nc2c(ccc3nc(NC(=O)Cc4ccccc4)sc32)s1	?	?	15%	-7.0%	-37%	-5%	58%[activator]	23%
COc1ccc(CNC(=O)C2CCN(S(=O)(=O)N3CC(C)CC(C)C3)CC2)cc1 (stereo not given)	nt	nt	-4%	nt	6%	nt	1%	?
COc1ccc(OCC(=O)N2N=C(C(F)F)CC2(O)C(F)F)cc1 (stereo not given)	?	13%	14%	-3.8%	6%	13%	-10%	-20%
COc1ccccc1C(=O)Nc1ccc(OCc2nnc3c4ccccc4c(C)nn23)cc1	-23%	?	6%	-3.9%	-10%	?	12%	?
S=c1[nH]nc(-c2ccn[nH]2)n1-c1ccccc1Cl	?	?	13%	nt	-1%	nt	45%[activator]	1%
O=C1C2=C(Nc3ccccc3SC2c2ccc(C(F)(F)F)cc2)c2ccccc21 (stereo not given)	?	?	nt	-2.8%	nt	20µM*	?	nt
Cc1c(Cl)cccc1-c1ccc(CNCc2ccccn2)o1	nt	nt	?	nt	-13%	nt	7%	-4%

Other results
SMILES	Marburg entry inh	Lassa entry inh	RE007 growth inh	Cruzain Triton	SARS PLP yeast	Cruzain noTriton	2A StopGo	NS1 function inh
CCC(C)(C(=O)NC1CCCC1)N(C(=O)c1ccccn1)c1ccc(C)cc1 (stereo not given)	0%	0%	-22%	-1.4%	0%	-2%	11%	1%
O=C(NCc1ccccc1Cl)C1=Cc2cc(Br)ccc2OC1	nt	?	nt	-4.2%	nt	-3%	69%[activator]	nt
Cc1cccc(C(=O)NCCNc2nc3cc(C)c(C)cc3cc2C)c1	-19%	-17%	-6%	nt	0%	nt	-19%	-3%
COc1ccc(-n2c(SCC(=O)Nc3ccc(C(=O)O)cc3)nnc2-c2cccs2)cc1	13%&13%	-25%	-17%	0.7%	-19%	-4%	-7%	?
COc1ccc(OC)c(S(=O)(=O)n2nnc3cc(Cl)ccc32)c1	2%	9%	-10%	5.6%	-4%	-3%	nt	?

Screening results deposited in PubChem by National Center for Advancing Translational Sciences (NCATS).
